Assay outcomes (PubChem BioAssay)
26S disassembly: blocks ATP-dependent breakdown of the yeast 26S proteasome. 0.2% of 24,000 active. inhibition of disassembly, % (concentration not given with the values). anti-FLAG beads, GFP-proteasome disassembly, flow cytometry;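 active = above 40%; inconclusive = likely self-fluorescent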;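 note: plate controls were ATP control with full disassembly for no effect and ATP-gamma-S intact proteasomes for full effect; higher percent means more bead fluorescence retained so stronger block of disassembly; stock transfer was 100 nL into about 10 µL; wells with too few beads may also be inconclusive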
VCAM-1 rise: enhancers of VCAM-1 display on endothelial cells, cell-based, plate reader, pooled HUVEC, TNFa stimulus (AID 455) | HUVEC TNFa-induced VCAM-1 immunofluorescence, plate reader; numbers were filed only for top-ranked candidate wells | augmentation, % at 5 µM | 0.2% of 10,000 active;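 active = a compound raising TNF-alpha-driven VCAM-1 surface staining, with its hit status upheld on visual or statistical review; inactive = the rest, including hits rejected on review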;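 note: 0% = TNFa with vehicle and 100% = strongest image-checked hit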
Active calls of the source: *; i = inactive; ? = inconclusive; . = not tested or not shown. Only part of the results is shown. The share of hits here may be higher or lower than overall.

26S disassembly	VCAM-1 rise	smiles
1.2	.	COc1ccc(-c2cc(C(=O)N3CCN(c4ccccn4)CC3)c3ccccc3n2)cc1
0.5	.	Cc1cccc(NC(=O)CN2CCCN(S(=O)(=O)c3ccc(Br)s3)CC2)c1
3.6	i	CCC1(CC)C(=O)N(C)C(=O)NC1=NCc1ccccc1
0.7	.	Cc1ccccc1C(=O)c1cccn1CC(=O)O
1.6	i	Cc1ccc(NCc2nnc(SCC(=O)NCc3ccco3)n2CC2CCCO2)cc1Cl (stereo not given)
0.1	i	O=C(CSc1nnc(CNC(=O)c2cccs2)o1)NCCc1ccccc1
-0.6	.	CCOc1ccc(N(CC(=O)Nc2ccc(OC)cc2)S(=O)(=O)c2c(C)noc2C)cc1
-1.2	.	CCn1cc(C(=O)NC2CCC(C)CC2)c(=O)c2cc(S(=O)(=O)N3CCCCC3)ccc21 (stereo not given)
4.8	i	Cc1c(Cl)cnc(NC(=O)COC(=O)C(NC(=O)c2ccco2)C(C)C)c1Cl (stereo not given)
-2.4	.	Oc1[nH]c2ccccc2c1C=NCC1CCCO1 (stereo not given)
1.5	i	O=C(CN1CCOCC1)Nc1cccc(C(=O)Nc2cccc(C(F)(F)F)c2)c1
-0.4	i	CCNc1ccc(S(=O)(=O)C(F)(F)F)cc1NC(=O)C12CCC(CC1)C2
?	.	CN(C)C(=O)c1ccc(Oc2ccc(C(=O)N(C)C)cc2)cc1
0.6	.	COc1ccc(-n2c(Cc3cccn3C)nnc2SCC(=O)Nc2ccc(C)c(Cl)c2)cc1
-0.2	i	Cn1c(-c2ccc(F)cc2)cnc1NCc1ccccc1
0.5	.	CC(CCc1ccccc1)NC(=O)C1CCCN(C(=O)c2cc3sccc3n2C)C1 (stereo not given)
0.6	.	O=C(O)c1cccn1Cc1ccccc1F
0.9	.	O=C1OC(NC(=O)c2ccccc2)C(N2CCOCC2)=C1Cl (stereo not given)
3.0	i	OC1(c2cccc(C(F)(F)F)c2)CCNCC1
-1.5	.	Cc1ccc(CCN2CC(C(=O)NCCN3CCOCC3)CC2=O)cc1 (stereo not given)
-0.2	.	CN(CC(=O)N1CCCCCC1)S(=O)(=O)c1ccc(Br)s1
14	i	CCOC(=O)c1cccc(NC(=O)CSc2nnc(-c3cccnc3)n2C)c1
-1.3	i	Cc1nnc(C)c2c(C)n(-c3ccc(Br)cc3)c(C)c12
-1.2	.	CCCSc1nc(N)cc(=O)[nH]1
0.6	.	CCOc1ccc(CNC(=O)C2CCN(S(=O)(=O)N3CCCC3)CC2)cc1OC

Continued:
26S disassembly	VCAM-1 rise	smiles
-0.1	.	O=C(NCCc1ccc(Cl)cc1)C1CCN(S(=O)(=O)N2CCCCC2)CC1
0.2	.	CCOc1ccc(-n2ccnc2SCC(=O)Nc2nnc(CC)s2)cc1
0.6	i	O=C(NCC1CCCO1)c1ccc(C(=O)NCC2CCCO2)cc1 (stereo not given)
-1.1	i	CSc1nc2ccc(Nc3nc(N4CCOCC4)nc(N4CCOCC4)n3)cc2s1
-1.6	.	NC(=O)C1CCN(C(=O)C2CCN(S(=O)(=O)c3ccccc3)CC2)CC1
4.0	i	COc1ccc(N2CCN(C(=O)CN3C(=O)C4CC=CCC4C3=O)CC2)cc1 (stereo not given)
-1.7	i	CCOC(=O)c1ccc(COC(=O)CCc2nc3ccccc3[nH]c2=O)o1
-0.1	.	O=C(NC1CCCCCCC1)C1CCCN(S(=O)(=O)c2cnc[nH]2)C1 (stereo not given)
2.9	.	CCOc1ccc(CCNC(=O)C2CCN(c3nnc(-n4cccc4)s3)CC2)cc1OCC
-0.5	.	O=C(C1CC(=O)N(C2CCCC2)C1)N1CCN(c2ccc(F)cc2)CC1 (stereo not given)
-0.6	i	COc1ccc(NS(=O)(=O)c2c(C)[nH]c(=O)[nH]c2=O)c(OC)c1
2.2	.	CCN1CCN(c2ncnc3c2sc(=S)n3-c2ccccc2)CC1
-1.4	i	CCOc1ccc(-n2cc(C(=O)N3CCN(C)CC3)c3cc(OC)c(OC)cc3c2=O)cc1
1.4	.	CCOC(=O)c1ccc(NC2c3ccccc3C(=O)N2c2cccnc2)cc1 (stereo not given)
0.0	i	CCOC(=O)N1CCC(NC(=O)c2cc(C(=O)NC3CCCC3)ccc2CO)CC1
-0.8	.	CCOc1ccc(C(=O)CN2CCN(S(=O)(=O)c3ccc(Cl)cc3)CC2)cc1
0.2	i	Cc1cc(C(=O)NCCCN2CCN(C3CCCCC3)CC2)n(-c2ccccc2)n1
-2.0	.	Cn1cc(C(=O)NCCc2ccccc2)c(=O)c2cc(S(=O)(=O)N3CCOCC3)ccc21
-0.6	.	CCc1ccc(-c2nc(CSCC(=O)N3CCN(c4ccccn4)CC3)c(C)o2)cc1
1.5	i	O=C(COc1ccccc1Cl)OCC(=O)N1CCN(S(=O)(=O)c2ccccc2)CC1
-2.3	.	CN(C)S(=O)(=O)c1ccc(C(=O)OCCCN=C2NS(=O)(=O)c3ccccc32)cc1
1.0	.	CC12CC(NC(=O)N1c1ccc(C(=O)N3CCN(c4ccccn4)CC3)cc1)c1ccccc1O2 (stereo not given)
0.2	.	CC(=O)Oc1cc2c(C(=O)NCCN3CCOCC3)c(C)oc2c2ccccc12
1.3	i	Cc1csc(NC(=O)c2ccoc2C)n1
-2.6	i	CCCc1n[nH]c2c1/C(=N/O)CC(c1ccccc1)C2 (stereo not given)

(continued)
26S disassembly	VCAM-1 rise	smiles
0.0	i	CC(C)COc1ccc(C2NC(=O)NC2=O)cc1 (stereo not given)
-0.1	i	O=C(C1CCC(CNc2c(N3CCCCC3)c(=O)c2=O)CC1)N1CCc2ccccc2C1 (stereo not given)
0.3	i	O=C(Nc1ccc(N2CCOCC2)cc1)c1cc2ccccc2o1
-0.6	.	Cc1cc(=O)n2nc(N3CCCC3C(=O)NCc3ccccn3)sc2n1 (stereo not given)
0.0	.	O=c1c(Cc2ccccc2O)c(O)nc2n1CCCS2
10	i	CCOc1ccc2cc(C#N)c(SCC(=O)N3CCC(C)CC3)nc2c1
-0.3	.	CCN1C(=O)c2cccc3c(NC(=O)c4cccc(N5C(=O)CCC5=O)c4)ccc1c23
-1.4	.	CCOC(=O)N1CCN(C(=O)c2ccc3c(=O)n(CCc4ccccc4)c(=S)[nH]c3c2)CC1
-1.4	.	CCC(=O)N1CCc2cc(Br)cc(S(=O)(=O)NCCN3CCCCC3C)c21 (stereo not given)
-3.7	.	CCn1ncc(C2=NOC(C(=O)Nc3cnn(C45CC6CC(CC(C6)C4)C5)c3)C2)c1C (stereo not given)
0.8	.	CCc1ccccc1NC(=O)c1nnn(CC(=O)Nc2cccc(C)c2)c1N
-0.9	i	COc1ccc(NC(=O)CCCN2C(=O)C3C4C=CC(C4)C3C2=O)c(OC)c1 (stereo not given)
-1.9	.	CC(=O)N(c1ccc(C)cc1)C1C=CS(=O)(=O)C1 (stereo not given)
-0.8	.	Cc1[nH]c(=O)[nH]c1C(=O)CCCCC(=O)OCC(=O)Nc1ccccn1
9.9	i	COCCOC(=O)c1cc(C(=O)c2cc(F)ccc2O)coc1=N
-1.2	i	Cc1cnc(-c2nnc(N(C)C(=O)C3CCOC3)s2)cn1 (stereo not given)
-0.1	i	CCC(=O)N(Cc1ccco1)c1nc(-c2cc(OC)ccc2OC)cs1
0.7	i	Cc1ccc(-n2c(=O)[nH]c3c(C(N)=O)nc(CC(C)C)nc32)cc1
0.1	.	COc1ccccc1NC(=O)c1nnn(Cc2ccccc2)c1NC(C)=O
2.0	i	O=C1CC(N2CCOCC2)C(=O)N1c1ccc2c(c1)OCO2 (stereo not given)
1.1	i	CN(C)C(=O)CN(c1ccc(F)c(Cl)c1)S(C)(=O)=O
-0.8	.	COc1cccc(CNC(=O)CCS(=O)(=O)c2cccc3nonc23)c1
-1.0	i	Cc1ccc(C)c(S(=O)(=O)NCc2cccnc2)c1
1.1	.	COc1cccc(NC(=O)c2oc3ccccc3c2NC(=O)C(C)(C)C)c1
0.8	.	CCCCN(CC)CCCNC(=O)CC1Oc2ccccc2NC1=O (stereo not given)

Next records follow.
26S disassembly	VCAM-1 rise	smiles
1.4	.	Cc1ccc(NC(=O)C2CCN(S(=O)(=O)c3cccc4nonc34)CC2)nc1
-0.5	.	CC(C)CCn1cnc2c(cnn2-c2ccc(F)cc2)c1=O
-4.8	.	Cn1c(C(=O)NCCCN2CCOCC2)cc2c(=O)n(C)c3ccccc3c21
-0.9	i	CCOC(=O)C(NCc1ccccc1OC)(NC(C)=O)C(F)(F)F (stereo not given)
0.1	.	COC(=O)c1ccc(CSc2nnc(CNC(=O)c3ccccc3F)o2)o1
0.0	.	COc1ccc(N(CC(=O)Nc2cccc(C)c2)S(=O)(=O)c2c(C)n[nH]c2C)cc1
0.6	.	O=C1C2ON(c3ccccc3)C(c3ccncc3)C2C(=O)N1c1ccc(N2CCOCC2)cc1 (stereo not given)
5.1	.	Cc1ccccc1-c1nc(CS(=O)CC(=O)NCCN2CCOCC2)c(C)o1 (stereo not given)
0.4	i	O=C1c2ccccc2C(Nc2ccc(F)c(Cl)c2)N1Cc1ccco1 (stereo not given)
-0.4	.	CC1=NCCN1S(=O)(=O)c1cc(Cl)ccc1Cl
-0.4	.	CCOc1ccc(C2c3c(oc4ccccc4c3=O)C(=O)N2c2ccc(C)cn2)cc1OC (stereo not given)
0.4	.	Cc1cccn2c(=O)c(C=NCc3ccccc3)c(NCCO)nc12
0.9	i	Cc1cc(Cl)ccc1NC(=O)CSc1nnc(Cc2cccs2)n1Cc1ccco1
-1.7	i	O=C(O)C1CC=CCC1C(=O)Nc1cc(Cl)ccc1Cl (stereo not given)
4.0	i	O=C(CSc1nc2cc(S(=O)(=O)N3CCOCC3)ccc2o1)NC1CCCc2ccccc21 (stereo not given)
1.1	.	O=C1CCc2cc(S(=O)(=O)N3CCC(C(=O)NC4CCCC4)CC3)ccc2N1
6.1	i	CCOc1cc(C(=O)N(C)Cc2cc3ccccc3[nH]c2=O)cc(OCC)c1OCC
0.5	.	CCOc1ccc(C2NC(=O)c3n[nH]c(C)c32)cc1 (stereo not given)
0.1	i	Cc1cc(NCCN2CCOCC2)n2nc(C)c(-c3ccccc3)c2n1
-1.3	i	CCOc1ccc(-n2cc(C(=O)Nc3cccc(C)n3)c3cc(OC)c(OC)cc3c2=O)cc1
0.9	i	O=C(NCC1CCCO1)C1c2ccccc2C(=O)N1C1CCCCCC1 (stereo not given)
-0.3	.	CCOc1ccc2nc(N3CCC(C(=O)N4CCN(C(=O)c5ccco5)CC4)CC3)sc2c1
-0.4	.	Cc1nn(C)c(C)c1S(=O)(=O)N(CC(=O)NCc1cccs1)c1ccc(C(C)C)cc1
0.2	i	CCOC(=O)c1cc2c(=O)n3ccccc3nc2n(CCCOC)c1=NC(C)=O
-0.4	.	Cc1cccc(NCc2nc(-c3ccccc3)no2)c1

Nothing new here: entries from further up.
26S disassembly	VCAM-1 rise	smiles
-0.4	.	CC1=NCCN1S(=O)(=O)c1cc(Cl)ccc1Cl
-0.4	.	CCOc1ccc(C2c3c(oc4ccccc4c3=O)C(=O)N2c2ccc(C)cn2)cc1OC (stereo not given)
0.4	.	Cc1cccn2c(=O)c(C=NCc3ccccc3)c(NCCO)nc12
0.9	i	Cc1cc(Cl)ccc1NC(=O)CSc1nnc(Cc2cccs2)n1Cc1ccco1
-1.7	i	O=C(O)C1CC=CCC1C(=O)Nc1cc(Cl)ccc1Cl (stereo not given)
4.0	i	O=C(CSc1nc2cc(S(=O)(=O)N3CCOCC3)ccc2o1)NC1CCCc2ccccc21 (stereo not given)
1.1	.	O=C1CCc2cc(S(=O)(=O)N3CCC(C(=O)NC4CCCC4)CC3)ccc2N1
6.1	i	CCOc1cc(C(=O)N(C)Cc2cc3ccccc3[nH]c2=O)cc(OCC)c1OCC
0.5	.	CCOc1ccc(C2NC(=O)c3n[nH]c(C)c32)cc1 (stereo not given)
0.1	i	Cc1cc(NCCN2CCOCC2)n2nc(C)c(-c3ccccc3)c2n1
-1.3	i	CCOc1ccc(-n2cc(C(=O)Nc3cccc(C)n3)c3cc(OC)c(OC)cc3c2=O)cc1
0.9	i	O=C(NCC1CCCO1)C1c2ccccc2C(=O)N1C1CCCCCC1 (stereo not given)
-0.3	.	CCOc1ccc2nc(N3CCC(C(=O)N4CCN(C(=O)c5ccco5)CC4)CC3)sc2c1
-0.4	.	Cc1nn(C)c(C)c1S(=O)(=O)N(CC(=O)NCc1cccs1)c1ccc(C(C)C)cc1
0.2	i	CCOC(=O)c1cc2c(=O)n3ccccc3nc2n(CCCOC)c1=NC(C)=O
-0.4	.	Cc1cccc(NCc2nc(-c3ccccc3)no2)c1

Continuation:
26S disassembly	VCAM-1 rise	smiles
1.2	.	Cn1cccc1Cc1nnc(SCC(=O)Nc2ccc(Cl)cc2)n1-c1ccc(F)cc1
-1.2	.	COCCCNc1nc2c(c(=O)[nH]c(=O)n2C)n1CC(O)COc1ccccc1C (stereo not given)
2.2	.	CCC1CCCCN1CCCNC(=O)C1CCC(=O)N1Cc1ccc(C)cc1 (stereo not given)
3.2	.	Cc1cc(C(=O)N2CCN(Cc3ccc4c(c3)OCO4)CC2)on1
0.3	i	Cc1ccc(OCC(O)CN2C(=O)NC(C)(C)C2=O)cc1C (stereo not given)
1.3	.	Nc1ncc(Br)cc1S(=O)(=O)NCCC(=O)N1CCN(c2ncccn2)CC1
0.1	.	COc1cccc(C2NC(C)(C(=O)O)C3C(=O)N(C(C)C)C(=O)C23)c1O (stereo not given)
0.6	i	CCCC(=O)N1c2ccccc2NC2=C(C(=O)CCC2)C1c1ccc(F)cc1 (stereo not given)
-0.4	.	CCSc1nc2c(c(=O)n1Cc1ccccc1)SC(C)C2 (stereo not given)
-0.4	.	CCN(CC)S(=O)(=O)c1ccc(NC(=O)c2c(-c3ccccc3)noc2C)cc1
-1.8	.	CCCCN1C(=O)c2ccccc2C1C(=O)NC1CCCC1 (stereo not given)
-3.0	i	CCOC(=O)CSc1nnc2n1C(C)(C)Cc1ccccc1-2
